Assay outcomes deposited in PubChem by several laboratories.
Mtb betalactam – beta-lactam sensitization of Mtb H37Rv, H37Rv; AID 434955, 2010; inhibition, % at 25 µM; M. tuberculosis H37Rv growth with meropenem, percent inhibition; hits of this screen are not shown here; 0.27% of 330,000 active;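 active means about 74% or more and at least 40 points above the plate without the antibiotic, then above 30% in a dose series; inconclusive means first-round hits that could not be retested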;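 further: growth measured after seven days incubation then overnight dye step; 0% = bacteria only wells and 100% = bacteria with antibiotic; twin plates without the antibiotic show which effects depend on it; some results filed as inactive read as strong as hits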
Mtb growth – M. tuberculosis H37Rv growth inhibitors, H37Rv strain (AID 1626); M. tuberculosis H37Rv growth inhibition; higher % means a stronger effect; 0.95% of 220,000 active; one-dose inhibition, % at 10 µM; IC50 in µM for titrated hits;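 active means confirmed in a dose series; inconclusive means inhibition above 80% but not taken into the dose series; inactive means below 80% or under 30% at every dose of the series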;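 further: bacteria incubated seven days before Alamar blue readout; 0% = bacteria only wells and 100% = bacteria with antibiotic wells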
RecA intein inh – Mtb RecA intein splicing inhibitors, primary screen, biochemical, fluorescence, HTS; 0.75% of 290,000 active; cell-free RecA intein splicing; inhibition, %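 (about 9 µM by stock and volumes)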; in the data active means inhibition above about 30%; inconclusive means no clear call, values can overlap the other calls;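 further: 0% = vehicle wells and 100% = reference inhibitor control wells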
Target sequence (P9WHJ3 whole entry, looked up): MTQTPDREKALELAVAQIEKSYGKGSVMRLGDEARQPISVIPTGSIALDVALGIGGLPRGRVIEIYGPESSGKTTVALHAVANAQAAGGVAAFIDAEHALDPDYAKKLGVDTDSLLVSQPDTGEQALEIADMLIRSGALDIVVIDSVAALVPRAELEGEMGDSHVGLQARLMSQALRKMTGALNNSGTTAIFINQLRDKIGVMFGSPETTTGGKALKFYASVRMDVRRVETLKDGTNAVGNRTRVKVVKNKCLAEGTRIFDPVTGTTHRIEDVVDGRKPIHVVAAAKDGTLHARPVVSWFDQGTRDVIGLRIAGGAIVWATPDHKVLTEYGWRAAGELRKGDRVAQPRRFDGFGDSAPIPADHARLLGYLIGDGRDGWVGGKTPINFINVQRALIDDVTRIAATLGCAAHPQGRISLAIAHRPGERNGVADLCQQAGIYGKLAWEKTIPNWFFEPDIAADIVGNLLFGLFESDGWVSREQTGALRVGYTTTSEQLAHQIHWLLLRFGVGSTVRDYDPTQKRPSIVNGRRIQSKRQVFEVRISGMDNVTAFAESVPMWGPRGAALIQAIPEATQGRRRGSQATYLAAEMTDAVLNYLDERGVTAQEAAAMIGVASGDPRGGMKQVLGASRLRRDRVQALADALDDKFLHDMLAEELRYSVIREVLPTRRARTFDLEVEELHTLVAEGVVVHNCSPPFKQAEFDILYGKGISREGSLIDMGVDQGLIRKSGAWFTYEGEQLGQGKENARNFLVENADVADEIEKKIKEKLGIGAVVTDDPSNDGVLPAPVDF
YopH PTP inh – YopH tyrosine phosphatase inhibitors, primary screen, biochemical, fluorescence Ex485/Em525. inhibition, %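 (about 10 µM by stock and volumes)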. 0.16% of 140,000 active. AID 898, 2007. YopH tyrosine phosphatase [Yersinia enterocolitica];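 active means inhibition of 50% or more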;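 further: controls were vehicle for no effect and minimum signal wells for full effect; inactives centre near -20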
Arbovirus inh – antivirals against arbovirus infection, primary screen, cell-based, full library, 10K replicate subset; arbovirus infection cell-based antiviral screen; inhibition, % at 10 µM; 0.37% of 200,000 active; AID 1251, 2008;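 active means inhibition from about 30%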;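 further: bluetongue infection of BSR cells; cell survival read as ATP light after 72 h; 0% = infected wells without compound and 100% = uninfected wells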
Arbovirus inh repeat – second read-out of Arbovirus inh, no call of its own (marks repeat the call); inhibition, %; measured here: 10K subset replicate screen; many hits read low in the repeat;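 first of two repeat runs on a subset; 0% = infected and 100% = uninfected wells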
* hit, by the source's call; ? = inconclusive; · = not tested or not shown.

SMILES	Mtb betalactam	Mtb growth	RecA intein inh	YopH PTP inh	Arbovirus inh	others
COc1ccc(OC)c(NC(=O)C2CCCN(S(=O)(=O)c3ccc(-n4cnnn4)cc3)C2)c1 (configuration not stated)	-2.1	·	0.6	·	·
C=CCSc1nnc(-c2cc(C(C)(C)C)nn2Cc2ccc(F)cc2)n1C	-3.8	-4.6%	·	·	·
O=C1CCc2cc(S(=O)(=O)NC(Cc3ccccc3)C(=O)NC3CCCC3)ccc2N1 (configuration not stated)	-1.1	-12.3%	0.2	-31.1	-2.5	Arbovirus inh repeat=10.3
COCCN(C(=O)c1snc(C(N)=O)c1N)C(C(=O)NC1CCCCC1)c1cc(OC)c(OC)c(OC)c1 (configuration not stated)	-1.9	·	-5.4	·	·
CSc1ncccc1C(=O)OCC(=O)NC(C)C	0.3	80.9%	-4.8	·	0.5
COc1ccc(-c2nnn(CCc3nn[nH]n3)n2)cc1OC	3.9	-6.3%	12.8	20.6	-1.9
CC(C)(C)c1ccc(C(=O)NCC(=O)O)cc1	-9.3	-1.9%	-1.0	·	-3.1
NNC(=O)C1CCN(S(=O)(=O)c2ccc(Cl)cc2)CC1	-11.3	·	3.8	·	·
S=c1[nH]nc(-c2ccc(Cl)cc2Cl)n1-c1ccc(Cl)cc1	-2.7	·	4.6	·	·
C=C(C)Cn1c(N2CC(C)CC(C)C2)nc2c1c(=O)[nH]c(=O)n2C (configuration not stated)	-3.0	5.7%	-0.3	·	-7.2	Arbovirus inh repeat=1.1
COc1cccc(C(=O)N(CN2CCCC2=O)c2cccc(Cl)c2)c1	7.1	-6.1%	3.6	-5.2	4.2
CCCCn1c(=O)[nH]c(=O)c2c1nc(Cn1ncc(Cl)c(Cl)c1=O)n2CCC	7.8	·	7.8	·	·
COC(=O)Nc1ccc2ncn(C)c(=O)c2c1	0.1	-3.6%	-0.4	-39.0	3.2
O=C(CN1CCOc2ccccc21)NCc1ccccc1	-1.0	·	-0.5	-10.1	-3.7	Arbovirus inh repeat=-1.7
Cc1c(NC(=O)CS(=O)(=O)c2ccccc2)c(=O)n(-c2ccccc2)n1C	-1.2	-2.7%	-2.3	·	5.0
Cc1cc2ncn(CCOc3ccccc3C#N)c2cc1C	-6.8	-2.6%	0.5	-31.9	-2.5
COC(=O)C(C)NC(=O)c1ccc(C(C)(C)C)cc1 (configuration not stated)	0.8	2.6%	0.5	-7.7	-2.1
COc1cccc(NC(=O)Cn2cnc3c(oc4nc5c(cc43)CCCC5)c2=O)c1	-3.5	·	1.6	·	·
CC(=O)Nc1ccc(NC(=O)CSc2nnc(-c3cccnc3)o2)cc1	-2.1	·	-0.4	·	·
COCCN1Cc2cccc(C(=O)Nc3ccc(C)cc3)c2C1=O	-1.1	0.3%	-1.4	·	1.9

Reprinted from the part before: six entries, followed by the next part.
SMILES	Mtb betalactam	Mtb growth	RecA intein inh	YopH PTP inh	Arbovirus inh	others
Cc1c(NC(=O)CS(=O)(=O)c2ccccc2)c(=O)n(-c2ccccc2)n1C	-1.2	-2.7%	-2.3	·	5.0
Cc1cc2ncn(CCOc3ccccc3C#N)c2cc1C	-6.8	-2.6%	0.5	-31.9	-2.5
COC(=O)C(C)NC(=O)c1ccc(C(C)(C)C)cc1 (configuration not stated)	0.8	2.6%	0.5	-7.7	-2.1
COc1cccc(NC(=O)Cn2cnc3c(oc4nc5c(cc43)CCCC5)c2=O)c1	-3.5	·	1.6	·	·
CC(=O)Nc1ccc(NC(=O)CSc2nnc(-c3cccnc3)o2)cc1	-2.1	·	-0.4	·	·
COCCN1Cc2cccc(C(=O)Nc3ccc(C)cc3)c2C1=O	-1.1	0.3%	-1.4	·	1.9
Cc1ccc(NC(=O)N2CCCC(C(=O)O)C2)cc1 (configuration not stated)	-1.9	-6.6%	-1.8	·	·
Cc1ccccc1NC(=O)OCc1ccccc1	-6.8	·	-0.4	·	·
CC(C)(C)c1ccc(C(=O)NCc2ccc(Cl)cc2)cc1	13.5	0.2%	0.4	-16.8	4.6
COc1cc(S(=O)(=O)NC2CCCC2)ccc1F	-3.5	-2.2%	-2.8	-29.5	4.3
Cc1ccc(CNC(=O)CCC2CCCN(Cc3cc4ccccc4o3)C2)o1 (configuration not stated)	0.2	-5.3%	0.9	·	·
Cc1ccc(/C([O-])=C(/C(=S)NCc2ccco2)[n+]2ccccc2)cc1	-15.9	-6.3%	4.3	-15.4	0.5
CCOc1ccc(CCNC(=O)Cn2c(=O)c3cccn3c3cccnc32)cc1	3.9	·	0.8	·	·
O=C(CSc1nc2ccccc2n1Cc1ccccc1Cl)N/N=C/c1ccccc1C(=O)O	4.1	8.6%	0.7	·	·
NC(=O)c1ccc(NC(=O)COC(=O)CC(NC(=O)c2ccccc2Cl)c2ccccc2)cc1 (configuration not stated)	4.4	-2.8%	-0.1	-9.6	3.0
O=C(CCC1CCCC1)N1CCN(C(=O)COc2ccccc2)CC1	-5.4	-3.6%	6.6	0.7	-6.6
CN(C)c1ccc(CNc2ncc(Br)cc2Br)cc1	16.5	3.0%	·	7.0	3.6
COC(=O)c1cc(NC(=O)COC(=O)C2CCC2)cc(C(=O)OC)c1	1.7	·	-2.6	·	·
COc1ccc(CCN2C(=O)CC(N3CCOCC3)C2=O)cc1OC (configuration not stated)	5.0	-4.0%	2.7	-20.9	2.0
COc1ccc(-c2ccc(C#N)c(SCC(=O)NC3CC3)n2)cc1OC	-2.5	-24.5%	-4.8	·	·
CCOC(=O)C(=O)N1CCN(c2ccccc2OC)CC1	7.9	-1.9%	-1.1	·	-2.4
Cc1cccc(/C=N/NC(=O)c2ccccc2OCc2cccc(Br)c2)n1	7.5	·	1.0	·	·
NS(=O)(=O)c1ccc(CNC(=O)CNC(=O)Cc2ccccc2)cc1	1.8	·	-0.3	·	·
Cc1ccc(C(=O)N2CCC(C(=O)c3ccc(Cl)cc3)CC2)cc1	1.2	·	3.3	·	·
CCN1CCn2c3c(c4cccc(C)c42)CCCC31 (configuration not stated)	5.8	·	-2.6	·	·
COc1ccc(OCC(=O)N/N=C(\C)c2ccc(-n3ccnc3)cc2)cc1	-7.7	6.6%	0.0	-23.7	-1.5

Next part (3 carried over from the part before).
SMILES	Mtb betalactam	Mtb growth	RecA intein inh	YopH PTP inh	Arbovirus inh	others
Cc1ccc(C(=O)N2CCC(C(=O)c3ccc(Cl)cc3)CC2)cc1	1.2	·	3.3	·	·
CCN1CCn2c3c(c4cccc(C)c42)CCCC31 (configuration not stated)	5.8	·	-2.6	·	·
COc1ccc(OCC(=O)N/N=C(\C)c2ccc(-n3ccnc3)cc2)cc1	-7.7	6.6%	0.0	-23.7	-1.5
Cc1cc(S(=O)(=O)NCCc2ccncc2)cc(C)c1F	-5.2	·	-4.1	·	·
NC(=O)SCC(=O)Nc1ccc(Cl)cc1	-10.3	-10.9%	-2.1	-26.1	4.7
c1ccc(-c2ccc3ccccc3n2)cc1	8.2	-2.4%	1.1	·	·
COc1ccc(C)cc1S(=O)(=O)Nc1cc2c3c(c1)CC(=O)N3CCC2	-1.2	·	-1.2	·	·
COc1cccc(/C=C(\C#N)c2nc3ccc(C)cc3[nH]2)c1OCC(=O)O	-2.1	·	1.7	·	·
COc1ccc(C)cc1S(=O)(=O)N1c2ccccc2CC1C (configuration not stated)	1.9	2.5%	2.4	-3.2	1.3
COC(=O)CSc1nc(N)c(C#N)c(C(C)C)c1C#N	2.8	0.9%	0.4	-27.7	-0.3
Cc1nc2sc3c(c2c(=O)[nH]1)CCCCC3	6.3	-1.3%	2.1	·	·
Oc1c(Br)cc(Br)cc1C=Nc1ccc2c(c1)OCCO2	54.3	62.4%	-5.8	·	-5.8
Cc1ccc(NC(=O)c2cnn(-c3ccccc3)c2C)c(C)c1	1.6	·	-2.4	·	·
CCOC(=O)c1cc(NC(=O)Cc2ccc(S(=O)(=O)N3CCOCC3)s2)cc(C(=O)OCC)c1	-1.8	·	1.9	·	·
CC1(C)Cc2ccccc2-c2nnc(SCC(=O)Nc3nc4ccccc4s3)n21	-4.3	-3.5%	·	-38.9	-3.6
COc1ccc(CCNC(=O)CSc2nnc(-c3ccc(F)cc3)o2)cc1OC	-1.2	-1.7%	4.2	-33.5	3.0
C[N+]1=C2CCCCCN2C(O)(c2ccccc2)C1 (configuration not stated)	-0.5	1.7%	·	-36.1	-0.6
CCOC(=O)CN(Cc1ccc(OC)c(OC)c1)S(=O)(=O)c1ccc(OC)cc1	-0.7	10.3%	0.7	-7.1	7.4
O=C(COC(=O)[C@@H]1CCCN1S(=O)(=O)c1ccc(Cl)cc1)NC12CC3CC(CC(C3)C1)C2	-2.1	-2.7%	11.0	2.8	7.3
CC(C)(C)c1ccc(C(=O)CC(Sc2ccc(Cl)cc2)C(=O)O)cc1 (configuration not stated)	38.1	75.8%	4.8	·	-25.7
COc1ccc(C2CC(C(F)(F)F)n3nc(C(N)=O)c(Cl)c3N2)cc1OC (configuration not stated)	3.8	-18.8%	0.0	-29.8	4.8
Cc1ccc(C2(C)NC(=O)N(CC(=O)Nc3cccnc3Cl)C2=O)cc1 (configuration not stated)	0.8	4.0%	0.9	·	11.5
Cc1noc(C)c1-c1nc(CS(=O)(=O)c2ccc(Cl)cc2)no1	-1.0	3.2%	0.8	·	·
Cc1cc(C)nc(N/C(=N/S(=O)(=O)Cc2ccccc2)Nc2ccccc2)n1	6.1	-3.5%	·	-18.4	0.7
CN(C)c1ccc(/C=N/NC(=O)c2ccc(Cl)cc2)cc1	7.6	0.0%	1.9	-44.1	1.4
CC(C)CC(NC(=O)C(Cc1ccc(OCc2ccccc2)cc1)NC(=O)OC(C)(C)C)C(N)=O (configuration not stated)	0.1	-3.9%	2.4	-43.3	1.2
CCOC(=O)C(C(=O)Nc1cccc(C)n1)C1CCCCC1 (configuration not stated)	0.7	-11.9%	0.4	-27.1	3.1	Arbovirus inh repeat=-1.5
Cc1c(F)cccc1NS(=O)(=O)c1ccccc1C#N	-2.2	8.1%	-0.1	-5.4	1.4
COC(=O)C(Cc1ccc(OC(=O)c2ccccc2C)cc1)N1Cc2ccccc2C1=O (configuration not stated)	-5.7	7.3%	3.3	-29.7	-0.3
Cc1ccc(Cn2nnc3c(=O)n(CC(=O)c4ccccc4)cnc32)cc1	-3.3	4.8%	1.3	-51.5	-1.0	Arbovirus inh repeat=-4.3
CC1(C)CC(=O)C=C(Nc2ccccn2)C1	-1.1	-5.5%	-1.3	-44.5	1.7
O=C1[C@H]2[C@@H](c3ccc(F)cc3)N3C(=O)N(c4ccccc4)C(=O)[C@@]3(Cc3ccccc3)[C@H]2C(=O)N1C1CCCCC1	-9.9	·	4.3	·	·
c1ccc(CSc2nnc(Cc3ccccc3)o2)cc1	8.6	10.6%	-3.1	·	-9.0
COc1ccc(N2C3=[N+](CC2(C)O)c2ccccc2CC3)cc1 (configuration not stated)	56.7	81.0%	-0.1	-43.9	-3.8
Cc1nc2c(C(=O)Nc3ccc(N4CCCC(O)C4)cc3)snc2c(=O)[nH]1 (configuration not stated)	-0.3	-7.0%	-1.8	·	·
O=C(Nc1ccccc1)c1cccc(S(=O)(=O)Nc2ccccn2)c1	-15.3	-1.6%	-1.8	-38.5	-5.1
COc1cc(OC)cc(-c2nc3ccccc3c(=O)n2NC(=O)c2cccnc2Cl)c1	-2.9	0.0%	1.0	-1.5	2.5
C=C(C)C1CC=C(C)/C(=N/NC(=O)CCCNc2cccc(C)c2)C1 (configuration not stated)	1.6	-4.9%	·	·	-6.1
COc1cccc(CC(=O)N2CCC(CCC(=O)Nc3cccc(OC)c3)CC2)c1	4.6	·	0.4	·	·
Cc1cc(CN(C)C(=O)CC2C(=O)NCCN2Cc2c(F)cccc2Cl)n[nH]1 (configuration not stated)	1.3	4.4%	0.9	·	2.4
COc1ccc2nc(C)c(C(N)=O)cc2c1	-5.3	-8.0%	-2.2	·	2.6
CC(=O)Nc1sc(N/N=C\c2cccc(Cl)c2)nc1-c1cccs1	?	54.5%	1.0	-10.1	-18.0
COC(=O)[C@]1(Cc2ccccc2)N[C@H](c2ccc(-c3ccc4c(c3)OCO4)cc2)[C@@H]2C(=O)N(C)C(=O)[C@@H]21	65.4	·	1.7	·	·
CCOc1ccc(S(=O)(=O)NCc2ccc3c(c2)OCO3)cc1C(=O)O	0.0	·	1.4	·	·
O=C(O)c1cc2c(s1)-c1ccccc1OC2	-1.0	-9.9%	-2.1	-34.8	1.6	Arbovirus inh repeat=4.9
CC1(C)CC(=O)C(Sc2ccccc2C(=O)O)=C(O)C1	11.3	-3.4%	-1.4	-27.3	5.6

An excerpt; the hit share may differ from the screen's.
